Source: PubChem BioAssay
StopGo FLuc = lowers the firefly signal of an FMDV 2A StopGo reporter; HEK cells with a luciferase reporter of 2A StopGo recoding; Potency, µM (doses to about 57.5 µM), without a hit: top-dose signal change, negative = less light; 0.23% of 120,000 active; active = well fitted falling curve with a large enough effect; inconclusive = small, poorly fitted or top-dose-only effect; inactive = no such curve, though single readings can be large or run the other way; further: nearly all actives have a fitted effect of over 60% in size; overnight with compound
StopGo RLuc = FMDV 2A StopGo reporter, Renilla signal | HEK cells with a luciferase reporter of 2A StopGo recoding | AID 1745857 | 0.32% of 120,000 active | Potency, µM (series often up to 57.5 µM), for inactives: top-dose signal change, negative = less light; active means well fitted falling curve with a large enough effect; inconclusive means small, poorly fitted or top-dose-only effect; inactive means no such curve, though single readings can be large or run the other way; further: nearly all actives have a fitted effect of over 55% in size; overnight with compound
* hit, by the source's call; ? = inconclusive; & = joins results of further samples; [ ] = remark or other dose. On the % scale 0 is the no-effect control and ±100 the full control effect; potency means the concentration at half of the fitted maximal effect. Some of the compounds tested, so the mix of outcomes need not match the whole.

SMILES	StopGo FLuc	StopGo RLuc
CCOC(=O)C1CCCN(C(=O)C2CCN(S(=O)(=O)c3ccc4c(ccn4CC)c3)CC2)C1 (stereo unspecified)	?	?
Cc1ccc2oc(=O)n(CCCOc3ccc(Cl)cc3)c2c1	34%[activator]	26%
COc1ccc(C(=O)Nc2nnc(SCc3cc(=O)n4cc(Cl)ccc4n3)s2)cc1	18%	-1%
Cc1ccc(CNC(=O)c2ccc3c(c2)CCN3S(=O)(=O)c2ccc(Br)cc2)cc1	-13%	6%
Cc1cccc(NS(=O)(=O)c2ccc3c(c2)CCN3C(=O)C2CC2)c1C	18%	207%[activator]
CCOC(=O)C1CCN(C(=O)COC(=O)c2cc3c(C)cc(C)cc3[nH]2)CC1	10%	-4%
O=C(CNC(=O)c1ccccc1Cl)OCc1cc(=O)n2ccsc2n1	-5%	-3%
COc1ccc(C(=O)Nc2oc3ccccc3c(=O)c2-c2ccc(Cl)cc2)cc1	55%[activator]	88%[activator]
CCc1cccc(NC(=O)c2n[nH]c(=O)c3ccccc23)c1	0%	-10%
Cc1ccc(-c2n[nH]c(=O)c3ccccc23)cc1S(=O)(=O)N1CCCC1	34%	30%
CCN(CC)C(=O)Nc1ccc2c(c1)N(Cc1ccccc1)C(=O)c1ccccc1S2	-15%	-4%
COc1ccccc1NC(=O)Cn1c(=O)n(Cc2nc(C)no2)c(=O)c2cc3c(cc21)OCO3	-2%&-20%	-2%&6%
CCOc1ccc(S(=O)(=O)c2c(C(=O)c3ccc(C)c(C)c3)cnc3ccccc23)cc1	3%	-4%
O=C(Nc1cccc(-c2nc3ccccc3o2)c1)c1cccnc1	6%	-26%
O=C(NCc1ccccc1)c1ncoc1-c1cccs1	176%[activator]	11%
Cc1[nH]c2ccccc2c1C(c1ccccc1)c1cccs1 (stereo unspecified)	52%[activator]	43%[activator]
C#CCNCc1ccc(F)cc1	9%	9%
CCOCCCNc1ncnc2onc(C)c12	-6%	-5%
CCc1ccc(-n2c(=O)c3cccnc3n2CC(=O)NCc2ccccc2)cc1	-15%	-12%
COC(=O)c1cc(N2CCOCC2)ccc1NC(=O)c1cccc(C#N)c1	0%	23%
CCC(=O)N1c2ccccc2CC1C(=O)NCCc1ccc(Cl)cc1 (stereo unspecified)	-8%	-1%
Cc1ccc(CCNC(=O)c2c3c(nc4ccccc24)C(=O)N(C2CCCCC2)C3)cc1	-27%	44%[activator]
CC1=CC(=O)C(C(=O)/C=C/c2cccs2)C(=O)O1 (stereo unspecified)	0%	5%[1.06 µM]
COc1ccc(Cc2nc3ccc(C(=O)NCCCN4CCN(C)CC4)cc3o2)cc1	-21%	-13%
COc1ccc(C(=O)/C=C/c2ccc(Br)cc2)cc1	107%[activator]	24%

New compounds follow.
SMILES	StopGo FLuc	StopGo RLuc
COc1cc(C)cc2oc(=O)c(CC(=O)NCCCn3ccnc3)c(C)c12	0%	-5%
CC(C)c1ccc(CN(C(=O)c2nn(C)c(=O)c3ccccc23)C2CC2)cc1	?	?
CSCC[C@@H](NC(=O)C(c1ccccc1)c1ccccc1)C(=O)O	-3%	-7%
Cc1ccc(NC(=O)Cn2nnc(-c3nc(-c4ccncc4)no3)c2N)cc1	0%	-6%
CCCCOc1cc(O)c2c(=O)cc(-c3ccccc3)oc2c1	4%	2%
Cc1noc2ncnc(Nc3ccc(F)cc3)c12	-9%	-12%
Cc1ccc(NC(=O)Cc2nc(-c3c(N)n(C)c(=O)n(C)c3=O)cs2)c(C)c1	-9%	-7%
Cc1ccc(OC(=O)CSc2nnc(CNC(=O)c3ccccc3)o2)cc1	-11%	-10%
CCOc1ccc(NC(=O)c2c(C)oc3nc(C)nc(N4CCCC4)c23)cc1	-20%	-7%
N#Cc1ccccc1CNc1cccc(Cl)c1F	0%	57%[activator]
O=C(CSc1nc2c([nH]c3ccccc32)c(=O)n1-c1cccc(Cl)c1)NCC1CCCO1 (stereo unspecified)	-10%	-7%
COc1ccc(NC(=O)c2coc(=O)c3ccccc23)cc1OC	26%	-15%
Cc1ccc(-c2ccc(OC(=O)c3ccc(C)c(Br)c3)cc2)cc1	5%	9%
CCOc1ccc(CCNC(=S)NC(=O)c2ccc(F)cc2Cl)cc1OCC	7%	10%
CC(C)c1cccc(C(C)C)c1NC(=O)COC(=O)Cc1n[nH]c(=O)c2ccccc12	-5%	-7%
COc1ccc(-c2noc(-c3cc(-c4ccco4)n[nH]3)n2)cc1	136%[activator]	-1%
CC(C)CCn1nc(C(=O)OCC(=O)c2ccc3c(c2)NC(=O)CO3)c2ccccc2c1=O	0%	4%
Cc1ccc(NC(=O)c2cc3cc(Cl)ccc3[nH]2)cc1	30%	15%
CCOC(=O)c1sc2ncn(CC(=O)Nc3cccc(C)c3)c(=O)c2c1C	-2%	-2%
CC(C)n1ncc2c(C(=O)Nc3ccc(Br)cc3F)c3c(nc21)CCC3	3%	-5%
Cc1ccc(Cn2c(SCC(=O)NCc3ccccc3)nc3ccsc3c2=O)cc1	-15%	-3%
CCc1ccc(CC)c(C(=O)Cn2cnc3c2c(=O)n(C)c(=O)n3C)c1	?	?
Cc1cc(=O)n2[nH]c(NCc3ccccc3)nc2n1	5%	-1%
CCOC(=O)c1nc2ccccc2nc1NCCc1ccc(C)cc1	-4%	0%
C(=C\c1ccccc1)/C=N/n1c2ccccc2c2ccccc21	29%	2%

Next results follow:
SMILES	StopGo FLuc	StopGo RLuc
CCC(C)(C)NC(=O)CSc1nnc(N2CCCC2)n1-c1ccc(C)cc1	137%[activator]	107%[activator]
Cc1ccc(-c2nc3ccccc3s2)cc1S(=O)(=O)N1CCCCC1	-7%	-30%
CCC(C)C(NC(=O)c1ccccc1)C(=O)NOCc1ccccc1 (stereo unspecified)	36%[activator]	7%
Cc1occc(=O)c1OC(=O)c1cccs1	3%	1%
CCCCCCCCN1C(=O)[C@@H](CC(=O)NCCc2ccccc2OC)C[C@@]2(C(=O)OC)C1=C[C@H](COCc1ccccc1)O[C@@H]2C	-2%	2%
Cc1cc(C)c2c(=O)cc(CSc3nnc(COc4ccccc4C)n3C)[nH]c2c1	-11%	-2%
O=C(OCc1cccc(Cl)c1)c1ccc(N2CCOCC2)nc1	13%	4%
NCCc1cccs1	-7%	6%
COc1ccc(Cn2c(CCC(=O)Nc3ccc(Br)c(C)c3)nc3cccnc32)cc1	-12%	-8%
Cc1nc2nc(N(Cc3cccc(C#N)c3)S(=O)(=O)c3ccccc3)nn2c(C)c1Cl	-15%	131%[activator]
N#Cc1nc(COc2ccc(Br)cc2)oc1NCc1ccncc1	1%	-8%
CCc1nc2cccnc2n1-c1ccc(CC(=O)Nc2ccc(C)cc2)cc1	6%	-8%
CC(C)c1ccc(S(=O)(=O)N2CCN(C(=O)CNC(=O)NCc3ccc(F)cc3)CC2)cc1	-14%	-8%
CCN(CC)C(=O)c1noc2c1CC(C(C)(C)C)CC2 (stereo unspecified)	-1%	8%
C=CCNC(=O)CSC(c1ccc(F)cc1)c1ccc(F)cc1	-9%	9%
COc1ccccc1C(=O)Nc1ccc(OCc2cc(=O)n3cccc(C)c3n2)cc1	-20%	16%
Cc1ccc(-n2nc3ccc(NC(=O)c4oc5ccccc5c4C)cc3n2)cc1	3%	13%
Cc1ccc(-n2nc(C)c(C(=O)O)c2-n2cccc2)cc1	11%	0%
Cn1c(=O)c2c(nc(SCC(=O)Nc3ccc(F)c(F)c3)n2Cc2ccccc2F)n(C)c1=O	17%&54%	11%&26%
Cc1cc(N2CCN(C)CC2)nc2ccc(NC(=O)Nc3ccc(F)cc3F)cc12	0%	-3%
CCCCCC(=O)N1CCN(CCNc2cc(=O)oc3ccccc23)CC1	-7%	-11%
CCN(CC)S(=O)(=O)c1ccc2c(c1)c(=O)c(C(=O)NCCc1ccc(OC)c(OC)c1)cn2C	0%	-10%
CC(C)(C)c1ccc(OCc2cc(=O)n3c4c(sc3n2)CCCC4)cc1	-8%	-2%
CCOC(=O)c1cccc(NC(=O)CSc2cc(=O)n(C)c3ccccc23)c1	45%[activator]	43%[activator]
Cc1cc2oc(C(=O)N(Cc3ccco3)Cc3ccccc3Cl)c(C)c2cc1C	6%	35%[activator]

19 consecutive compounds already listed, quoted:
SMILES	StopGo FLuc	StopGo RLuc
CCC(C)(C)NC(=O)CSc1nnc(N2CCCC2)n1-c1ccc(C)cc1	137%[activator]	107%[activator]
Cc1ccc(-c2nc3ccccc3s2)cc1S(=O)(=O)N1CCCCC1	-7%	-30%
CCC(C)C(NC(=O)c1ccccc1)C(=O)NOCc1ccccc1 (stereo unspecified)	36%[activator]	7%
Cc1occc(=O)c1OC(=O)c1cccs1	3%	1%
CCCCCCCCN1C(=O)[C@@H](CC(=O)NCCc2ccccc2OC)C[C@@]2(C(=O)OC)C1=C[C@H](COCc1ccccc1)O[C@@H]2C	-2%	2%
Cc1cc(C)c2c(=O)cc(CSc3nnc(COc4ccccc4C)n3C)[nH]c2c1	-11%	-2%
O=C(OCc1cccc(Cl)c1)c1ccc(N2CCOCC2)nc1	13%	4%
NCCc1cccs1	-7%	6%
COc1ccc(Cn2c(CCC(=O)Nc3ccc(Br)c(C)c3)nc3cccnc32)cc1	-12%	-8%
Cc1nc2nc(N(Cc3cccc(C#N)c3)S(=O)(=O)c3ccccc3)nn2c(C)c1Cl	-15%	131%[activator]
N#Cc1nc(COc2ccc(Br)cc2)oc1NCc1ccncc1	1%	-8%
CCc1nc2cccnc2n1-c1ccc(CC(=O)Nc2ccc(C)cc2)cc1	6%	-8%
CC(C)c1ccc(S(=O)(=O)N2CCN(C(=O)CNC(=O)NCc3ccc(F)cc3)CC2)cc1	-14%	-8%
CCN(CC)C(=O)c1noc2c1CC(C(C)(C)C)CC2 (stereo unspecified)	-1%	8%
C=CCNC(=O)CSC(c1ccc(F)cc1)c1ccc(F)cc1	-9%	9%
COc1ccccc1C(=O)Nc1ccc(OCc2cc(=O)n3cccc(C)c3n2)cc1	-20%	16%
Cc1ccc(-n2nc3ccc(NC(=O)c4oc5ccccc5c4C)cc3n2)cc1	3%	13%
Cc1ccc(-n2nc(C)c(C(=O)O)c2-n2cccc2)cc1	11%	0%
Cn1c(=O)c2c(nc(SCC(=O)Nc3ccc(F)c(F)c3)n2Cc2ccccc2F)n(C)c1=O	17%&54%	11%&26%

Continuation.
SMILES	StopGo FLuc	StopGo RLuc
CCCCn1c(-c2csnn2)nc2c1c(=O)[nH]c(=O)n2CCCC	-1%	-9%
COCCCNC(=O)C1CCN(S(=O)(=O)c2ccc3c(ccn3C)c2)CC1	2%	0%
CCOc1ccc(C2(c3cccc(Br)c3)CCCCC2)cc1	16%	10%
Cc1c(Cl)cccc1NC(=O)CSc1nc(=O)[nH]c2c1CCC2	-22%	-7%
Cc1ccc2nc(CSc3ncnc4ccccc34)cn2c1	0%	-13%
Cc1ccc(S(=O)(=O)c2cn(C)c3cc(N4CCCC(C)C4)c(F)cc3c2=O)c(C)c1 (stereo unspecified)	-12%	-9%
Nc1c(C(=O)Nc2ccccc2Cl)c2ccccn2c1C(=O)c1ccc(Cl)cc1	-17%	-13%
COC(=O)/C=C/C(=O)c1ccc(OC)cc1	0%	47%[activator]
CCc1ccc(C2C=C(c3ccccc3)Nc3nnnn32)cc1 (stereo unspecified)	75%[activator]	8%
C#CC1(O)CCC2C3CCC4=CC(=O)CCC4C3CCC21C (stereo unspecified)	-1%	-2%
CCOC(=O)C1C(=O)C=C(c2cccs2)CC1c1ccc(CC)cc1 (stereo unspecified)	-6%	0%
CCOc1cc(CNC(=O)c2ncoc2-c2ccc(OC)cc2)ccc1OC	?	?
Fc1ccc(OCc2nc3ccccc3n2C(F)F)c(F)c1	139%[activator]	3%
N#Cc1nc(-c2ccc(S(=O)(=O)N3CCCCC3)cc2)oc1NCCCn1ccnc1	-1%	81%[activator]
CC(C)C(CNC(=O)c1n[nH]c(=O)c2ccccc12)N1CCOCC1 (stereo unspecified)	1%	-6%
CC(C)c1ccc(COc2ccc(Cl)cc2C(N)=O)cc1	115%[activator]	26%
CC(=O)N1CCc2cc(CNS(=O)(=O)c3ccccc3C(F)(F)F)ccc21	3%	16%
CC1(C)CCC(N)c2ccccc21 (stereo unspecified)	-14%	-20%
COc1ccccc1Oc1c(C)oc2cc(OCC(=O)O)ccc2c1=O	-7%	9%
COc1ccc(CCNC(=O)C(=O)NCC(c2ccc3c(c2)OCO3)N2CCOCC2)cc1 (stereo unspecified)	-5%	-22%
